Compound activity as filed in PubChem BioAssay.
2A firefly: Primary qHTS Assay for Foot and Mouth Disease Virus Antivirals against NCGC Sytravon and CBC Compound Libraries: Firefly Luciferase Signal; HEK cells with a luciferase reporter of 2A StopGo recoding; Potency, µM (highest dose often 57.5 µM), for inactives: at the top dose signal change, negative = less light; hit rate 0.23% among 120,000; AID 1745856, 2022; active = well fitted falling curve with a large enough effect; inconclusive = small, poorly fitted or top-dose-only effect; inactive = no such curve, though single readings can be large or run the other way; note: nearly all actives have a fitted effect of over 60% in size; overnight with compound
StopGo RLuc: Primary qHTS Assay for Foot and Mouth Disease Virus Antivirals against NCGC Sytravon and CBC Compound Libraries: Renilla Luciferase Signal; HEK cells with a luciferase reporter of 2A StopGo recoding; Potency, µM (titrated, usually from 57.5 µM), without a hit: at the top dose signal change, negative = less light; hit rate 0.32% among 120,000; active means well fitted falling curve with a large enough effect; inconclusive means small, poorly fitted or top-dose-only effect; inactive means no such curve, though single readings can be large or run the other way; note: nearly all actives have a fitted effect of over 55% in size; overnight with compound
Starred values were filed as active, the others as inactive; ? = inconclusive; & = joins results of further samples; [ ] = remark or other dose. % is set by controls: 0 for no effect and ±100 for the full control effect; potency is the fitted concentration of half-maximal effect.

SMILES | 2A firefly | StopGo RLuc
CCn1c(=O)cc(OCC(=O)N2CCN(c3cccc(C)c3C)CC2)c2ccccc21 | -11% | -9%
CC(C)=CC1C=C(C)C(C)C(C)C1/C=N/NC(=O)c1ccccc1 (stereo not given) | 19% | 52%[activator]
S=C(NCc1ccccc1)N/N=C/c1c2ccccc2c(Cl)c2ccccc12 | -12% | -3%
c1ccc(-c2csc(Nc3ccc4c(c3)OCO4)n2)cc1 | 208%[activator] | 4%
COc1ccc(Nc2nc3ccc(Cl)cc3nc2-n2nc(C)cc2C)cc1 | -8% | -5%
Cc1cc(OCC(=O)Nc2cnn(CCCC(=O)O)c2)ccc1Cl | -31% | -17%
Cc1oc2cc(OCC(=O)NCc3cccs3)ccc2c(=O)c1Oc1ccc(F)cc1 | -18% | -20%
Fc1cccc(Cl)c1CNCCOc1ccccn1 | 15% | 6%
Cc1ccc(C(=O)Nc2nc(-c3nnn(-c4cccc(Cl)c4C)c3C)ns2)cc1C | 3.5µM* | 5µM*
Cc1ccc(Cl)cc1NC(=O)CCN=C1NS(=O)(=O)c2ccccc21 | -2% | -3%
COc1ccc(-c2nc3scc(CCNS(=O)(=O)c4ccc(C)cc4)n3n2)cc1 | -12% | 156%[activator]
Cc1ccc(NC(=O)c2nn(Cc3ccccc3)c(=O)c3ccccc23)cc1Cl | 25% | 11%

Continued; it opens with the 2 that closed the last part.
SMILES | 2A firefly | StopGo RLuc
COc1ccc(-c2nc3scc(CCNS(=O)(=O)c4ccc(C)cc4)n3n2)cc1 | -12% | 156%[activator]
Cc1ccc(NC(=O)c2nn(Cc3ccccc3)c(=O)c3ccccc23)cc1Cl | 25% | 11%
Cc1ccc(S(=O)(=O)c2cc3cc(C(=O)Nc4ccc(C)cc4C)ccc3oc2=O)cc1 | -8% | -9%
COC(=O)C1CN(C2CC2)CCS(=O)(=O)N1Cc1cn(Cc2ccc(Cl)cc2)nn1 (stereo not given) | -7% | 0%
CCOc1ccc(C2CCCN2S(=O)(=O)Cc2ccc(F)cc2)cc1 (stereo not given) | 0% | 35%[activator]
CCc1ccccc1Nc1nn2c(=O)c3ccc(C(=O)NCc4cccs4)cc3nc2s1 | -15% | 23%
COc1ccccc1NC(=O)C1=C(C)Nc2nc(SCc3ccc(Cl)cc3)nn2C1c1ccccc1Cl (stereo not given) | 6% | 4%
CCCCCCc1c(C)c2c(cc(C)c3c(C)c(C)oc32)oc1=O | 24% | 31%[activator]
CCCCCNC(=O)CCc1c(C)nc2nc(N)nn2c1C | 8% | 10%
Cc1ccc(CN2CCC(CNc3ncnc4onc(-c5ccc(F)cc5)c34)CC2)cc1 | -17% | -14%
Cc1ccc(C)c(NC(NC(=O)c2ccc(C(C)(C)C)cc2)C(Cl)(Cl)Cl)c1 (stereo not given) | -7% | ?
COc1cccc(OC)c1C(=O)Oc1ccc2c(c1)O/C(=C\c1ccc(C(C)C)cc1)C2=O | 18% | 15%
CCOC(=O)c1cnc2c(Cl)c(Cl)ccc2c1NCCOC(=O)c1cccnc1 | 13% | 4%
Cc1cc2[nH]c(=O)c(=O)[nH]c2cc1S(=O)(=O)N1CCN(c2ccccc2F)CC1 | -6% | -15%
Cc1ccc(-c2nnc(CCC(=O)N3CCc4sccc4C3c3cccs3)o2)cc1 (stereo not given) | 1% | 3%
COc1ccc(N2C(=O)C(C)(C)CS2(=O)=O)cc1S(=O)(=O)NCc1ccccc1F | 10% | ?
Cc1ccc(-n2nc3c(=O)n(CCCC(=O)NCCc4ccccc4)nc(C)c3c2C)cc1 | -12% | -11%
CCn1c(N2CCN(CCCc3ccccc3)CC2)nc2c1c(=O)[nH]c(=O)n2C | 4% | -3%
O=C(Nc1nc(-c2cccnc2)cs1)C1CC(=O)N(c2ccccc2Cl)C1 (stereo not given) | 1% | -2%
CCOc1ccccc1NC(=O)C(C)Nc1ccc2c(c1)CCN2C(C)=O (stereo not given) | 94%[activator] | 54%[activator]
COc1cccc(Nc2nc3ccccc3nc2NS(=O)(=O)c2cccc3nsnc23)c1 | 26% | 207%[activator]
COc1ccc(C(=O)Nc2cc(NC(=O)c3ccc(Br)o3)ccc2OC)cc1 | 11% | 8%
CNC(=O)COC(=O)c1c(C)c(-c2ccccc2)nc2ccccc12 | 2% | 0%
C[C@@H]1CCC2[C@](C)(CO)[C@@H](O)CC[C@]2(C)[C@@]12CCC(CO)(CCO)O2 (stereo not given in full) | -5% | -8%
Cc1cc(C)c2oc(C(=O)N(Cc3ccccc3)c3ccccn3)cc(=O)c2c1 | 19% | 110%[activator]
CCc1nn(CC(=O)Nc2c(C)cccc2C)c(=O)c2cc3sccc3n12 | -13% | -10%
COc1cccc(CNC(=O)CSc2ncc(S(=O)(=O)c3ccc(Br)cc3)c(=O)[nH]2)c1 | 7% | 5%
COc1ccccc1N1CCN(C(=O)c2cc3c(=O)oc4ccc(C)cc4c3s2)CC1 | -37% | -22%
COc1ccc(/C=C/C(=O)N[C@@H]2C[C@H]3CC[C@@H]2C3)cc1 | 0% | 16%
NC(=O)C(OC(=O)c1ccccc1)C(OC(=O)c1ccccc1)C(=O)O (stereo not given) | ? | 2%[1.06 µM]
Cc1cc(OCc2nn[nH]n2)c2c(C)c(CC(=O)O)c(=O)oc2c1 | -5% | 7%
COc1cccc(CNC(=O)Cn2cc3c(n2)-c2c(oc(C(=O)N4CCCC4)c2C)CC3)c1OC | 5% | 23%
O=C(Nc1ccc2c(c1)CCC2)c1ccc2ccccc2c1 | 120%[activator] | 17%
Cc1ccccc1NC(=O)Cn1c(=O)n(CC2CCC(C(=O)NCCc3ccccc3)CC2)c(=O)c2ccccc21 (stereo not given) | -2% | 3%
Cc1ccc(/C=C/C(=O)c2c(C)nc3ccc(Cl)cc3c2-c2ccccc2)o1 | -29% | -23%
O=C(c1ccccc1)N1CCSc2ccc(Cl)cc21 | -2% | -3%
COc1ccc(NC(=O)C(c2ccc(C)cc2)N(C)C(=O)Cc2cccs2)cc1 (stereo not given) | -2%&13% | 65%&105%[activator]
O=C(c1cccs1)N1CCN(Cc2c[nH]c3ccccc23)CC1 | -6% | -3%
CCCOc1ccc(CN2C(=O)C(=O)c3cccc(C)c32)cc1 | 7% | 0%
O=C(Cn1ccc2cc(S(=O)(=O)N3CCCCCC3)ccc21)NCCc1ccc(Cl)cc1 | -28% | 79%[activator]
CCOc1ccc(NC(=O)c2ccc3nc(C(C)C)oc3c2)cc1 | 45%[activator] | 2%
Cc1[nH]c2ccccc2c1-c1csc(NC(=O)C2CC2)n1 | 37%[activator] | -3%
CCOc1cc(OCC)cc(C(=O)Nc2ccc(N3CCN(C(=O)c4ccccc4C)CC3)cc2)c1 | -7% | -7%
CN1CC(=O)Nc2cc(C(=O)O)ccc21 | -22% | 0%
Cc1ccsc1C(=O)Oc1ccc(-c2ccc(C#N)cc2)cc1 | 46%[activator] | 28%
Cc1ccc2c(CSc3nnc(NC4CCCCC4)s3)cc(=O)oc2c1 | -5% | 15%
O=S1(=O)c2ccccc2-c2c(nnn2CC2CCCCC2)CN1C1CC1 | -9% | 58%[activator]
CSc1nnc2n(-c3ccc(C)cc3)c(=O)c3c4c(sc3n12)COC(C(C)C)C4 (stereo not given) | 7% | 12%
C=CCn1c(N2CCN(Cc3ccc(Cl)cc3)CC2)nc2c1c(=O)[nH]c(=O)n2C | 11% | 4%
CCc1ccc(-c2nnn(CC(=O)c3ccccc3F)n2)cc1 | 153%[activator] | 42%[activator]
COC(=O)c1c(NC(=O)c2cccc(C)c2)sc(C(=O)Nc2ccccc2)c1C | 39% | -2%
Cc1ccc(CNC(=O)C2CCN(S(=O)(=O)c3ccc4c(c3)CCCN4C(=O)C3CCC3)CC2)cc1 | -12% | -4%
O=C(Nc1ccc(F)cc1)c1nnc(CSCC(=O)N2CCN(c3ccccc3)CC2)s1 | -13% | ?
O=C1C2=C(Nc3ccccc3SC2c2c(F)cccc2Cl)c2ccccc21 (stereo not given) | -1% | -2%
COc1cccc(-c2nc(CS(=O)(=O)CC(=O)NCCc3cc(OC)ccc3OC)c(C)o2)c1 | ? | -16%
O=C(Nc1cccc(F)c1)C1CCCN(S(=O)(=O)c2cccc3cccnc23)C1 (stereo not given) | -30% | 35%[activator]
Cc1cccc2c(C(=O)NC3CC3)cc(-c3cccnc3)nc12 | 125%[activator] | 97%[activator]
Cc1ccc(C)c(NC(=O)CCN2C(=O)c3ccccc3Sc3ncccc32)c1 | -17% | -15%
Cc1cc(Br)cc2c(C(=O)OCC(=O)c3ccccc3)cc(-c3ccccc3)nc12 | -4% | -1%
Cc1nc(SCC(=O)Nc2ccccc2Cl)cc(-c2ccccc2)n1 | -22% | -13%
Cc1ccc([C@@H]2c3c(C)nn(-c4ccccc4)c3NC(=O)[C@H]2NC(=O)c2cccc(C)c2)cc1 | -20% | -20%
CN(C(=O)c1ccc2c(c1)N(Cc1cccc(Cl)c1)C(=O)c1ccccc1S2=O)C1CCCCC1 (stereo not given) | -19% | -19%

Not a retest: an excerpt of the list.
SMILES | 2A firefly | StopGo RLuc
COC(=O)c1c(NC(=O)c2cccc(C)c2)sc(C(=O)Nc2ccccc2)c1C | 39% | -2%
Cc1ccc(CNC(=O)C2CCN(S(=O)(=O)c3ccc4c(c3)CCCN4C(=O)C3CCC3)CC2)cc1 | -12% | -4%
O=C(Nc1ccc(F)cc1)c1nnc(CSCC(=O)N2CCN(c3ccccc3)CC2)s1 | -13% | ?
O=C1C2=C(Nc3ccccc3SC2c2c(F)cccc2Cl)c2ccccc21 (stereo not given) | -1% | -2%
COc1cccc(-c2nc(CS(=O)(=O)CC(=O)NCCc3cc(OC)ccc3OC)c(C)o2)c1 | ? | -16%
O=C(Nc1cccc(F)c1)C1CCCN(S(=O)(=O)c2cccc3cccnc23)C1 (stereo not given) | -30% | 35%[activator]
Cc1cccc2c(C(=O)NC3CC3)cc(-c3cccnc3)nc12 | 125%[activator] | 97%[activator]

Following part:
SMILES | 2A firefly | StopGo RLuc
O=C(CCNC(=O)c1ccccc1Cl)Nc1nc2ccc(SC(F)F)cc2s1 | 210%[activator] | 19%
FC(F)(F)c1ccc(-c2noc(-c3ccccc3Br)n2)cc1 | ? | -2%
COc1ccc(S(=O)(=O)N(CC(=O)Nc2ccccc2Br)Cc2ccccc2)cc1 | -21% | 79%[activator]
CCN(CC)S(=O)(=O)c1cc(-c2nnc(Nc3ccc(OC)c(C(N)=O)c3)c3ccccc23)ccc1C | 10% | 1%
CC(C)c1nc2ccc(C(=O)NCCCN3CCN(c4ccccc4)CC3)cc2o1 | -26% | -18%
Cc1cc(C(=O)CN2CCC(C(=O)c3ccccc3)CC2)c(C)n1C(C)C | 10% | -4%
COc1ccc(CCNC(=O)c2c(C)nn(-c3ccc(F)cc3)c2-n2cccc2)cc1OC | 14% | 20%
CC(OC(=O)C1CC2CCCC(C1)C2=O)C(=O)c1ccc(C(C)(C)C)cc1 (stereo not given) | 34%[activator] | -11%[1.06 µM]
COc1ccc(NC(=O)Cc2cnc(-n3cccc3)s2)c(OC)c1 | 49%[activator] | 35%[activator]
O=S(=O)(c1cccc(Cl)c1)N1CCN(Cc2coc(-c3cccs3)n2)CC1 | -2% | 10%
COc1cccc(/C=C/c2nc(C#N)c(N3CCN(C)CC3)o2)c1 | 9%&2% | 9%&12%
CCCN(CC)c1ccc(/C=N/NC(=S)Nc2cccc(C)c2)cc1 | 54%[activator] | 2%
Cc1ccc(C)c(CN2CCN(c3nc4c(c(=O)[nH]c(=O)n4C)n3C/C=C/c3ccccc3)CC2)c1 | -7% | -7%
O=C(O)c1cc(-c2ccc3ccccc3n2)nc2ccc3ccccc3c12 | 32%[activator] | 58%[activator]
Cc1cc(OCC(=O)NC2CC2)c2c(C)cc(=O)oc2c1 | 9% | -1%
CSc1ccc(NC(=O)c2ccc3c(c2)NC(=O)CCS3)cc1 | ? | 10µM*
CC(C)CNC(=O)C(=O)NCCc1c[nH]c2ccccc12 | 14% | 3%
CC(=O)NNC(=S)NC(C)c1ccccc1 (stereo not given) | -7% | -10%
CCc1ccc(S(=O)(=O)c2nnn3c2nc(N2CCOCC2)c2sccc23)cc1 | -23% | -4%
CCCc1cc(=O)n2[nH]c(NCc3ccccc3OC)nc2n1 | 0% | 4%
CCOc1ccc(N2CC(NC(=O)/C=C\c3ccc4c(c3)OCO4)CC2=O)cc1 (stereo not given) | -5% | 5%
CCNc1c(NC(=O)NCCCOC)c(=O)oc2ccccc12 | -1% | -8%
Clc1cccc(-c2nn3c(-c4ccc5ccccc5n4)nnc3s2)c1 | 21% | -10%
COc1ccc(CNC(=O)C2CCC(CNS(=O)(=O)c3cccs3)CC2)cc1 (stereo not given) | -2% | 3%
O=C(CSc1ncnc2nc[nH]c12)Nc1cc(Cl)cc(Cl)c1 | 7% | -7%
COc1ccc(S(=O)(=O)NCCc2csc3nc(-c4ccc(Cl)cc4)nn23)cc1C | 13% | 0%
COc1ccc(C(=O)COC(=O)c2ccc(F)cc2F)c(OC)c1 | 55%[activator] | 6%
O=C(Nc1ccc(F)cc1Cl)Nc1ccccc1C(F)(F)F | 12% | -4%
CCCCCC(=O)N/N=C/c1cccc(Cl)c1 | 79%[activator] | 28%
O=C(c1ccc(N2C(=O)CCS2(=O)=O)cc1Cl)N1CCCCC1 | -1% | 7%
Cc1ccccc1OCCCCn1c(-c2ccc(Cl)cc2)nc2ccccc2c1=O | -12% | -4%
COc1cc(-c2noc(-c3ccc(NCc4ccco4)c([N+](=O)[O-])c3)n2)cc(OC)c1OC | -16% | -16%
CN(Cc1ccc(F)cc1)c1cc(C(=O)N2CCOCC2)c2ccccc2n1 | -15% | 67%[activator]
COc1ccccc1N(CC(=O)Nc1ccc(C)c(Cl)c1)S(=O)(=O)c1ccc(C)cc1 | -19% | 0%
